NPYLR7 agonist – agonists of mosquito NPYLR7 receptor, primary screen, cell-based, Aedes aegypti, calcium fluorescence, mosquito biting behavior; activation, % at 10 µM; HEK293T NPYLR7/Galpha15, GCaMP6s calcium fluorescence; Aedes aegypti neuropeptide Y-like receptor 7 (NPYLR7); actives 0.15% (n = 270,000); in the data active = activation above about 40%;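 note: 0% = vehicle and 100% = reference agonist at the receptor; some compounds past the cut are filed as inactive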
NPYLR7 agonist max-min – further read-out of NPYLR7 agonist, marked with its call; activation, %; measured here: Max-Min RFU normalised activation; some inactives read as strong as hits;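 span of the calcium signal over five minutes; 0% = vehicle and 100% = native peptide agonist; compound fluorescence can raise it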
The depositor's hits bear a star; & = joins results of further samples. This is a subset; rates above refer to the full screens.

Results follow in this order: NPYLR7 agonist | NPYLR7 agonist max-min
- Cc1cccc(C)c1Cn1c(C)c(C(=O)NCc2cccc(C(F)(F)F)c2)sc1=O
  -11 | -2
- CNc1ccc(-c2ccc(C(=O)NCCO)cc2)cn1
  -3 | -3
- CCCC(C)C(=O)Nc1ccc(-c2nccs2)cc1 (stereo not drawn)
  1 | 1
- COc1ccc(-c2nnc(SCC(=O)N/N=C\c3cccc(OC)c3O)n2-c2ccccc2)cc1OC
  -6 | -11
- C[C@@H]1CN(C(=O)CCn2c(=O)oc3ccccc32)C[C@H](C)O1
  -6 | -10
- O=c1ccc(C(F)(F)F)cn1Cc1nc(-c2ccccc2)no1
  2 | 0
- Cn1nnnc1SCC(=O)NC(=O)NC(C)(C)C
  -8 | -14
- O=C1OC(Oc2cccc3cccnc23)(c2ccccc2)c2ccccc21 (stereo not drawn)
  -2 | -5
- CCOC(=O)C1CCN(C(=O)c2csc(CSc3nnc(Cc4ccccc4)n3-c3cccc(Cl)c3)n2)CC1
  -8 | -3
- Cc1nn(C(C)(C)C)c(OC(=O)c2c(F)cccc2F)c1S(=O)(=O)c1ccccc1
  0 | 31
- COCCCNC(=O)c1cc(NC(=O)Nc2ccc(F)cc2F)ccc1N1CCC(C)CC1
  13 | 23
- CN1CC(=O)N(CCCC(=O)N2CCC(c3nc4ccccc4s3)CC2)C1=O
  6 | 0
- COc1cccc2cc(C(=O)Nc3cccc(C)c3)c(=N)oc12
  -7 | -10
- O=C(CC1COCCN1)N1CCc2[nH]nc(C3CCC3)c2C1 (stereo not drawn)
  -6 | -4
- CCn1c(C2CCNCC2)nn(CCn2ccc(C)n2)c1=O
  9 | 5
- COc1ccc(CN(CCc2c[nH]c3ccccc23)C(=O)CN(C(C)C)S(=O)(=O)c2cccc(C(F)(F)F)c2)cc1OC
  19 | 24
- CCCCn1c(=O)c2c(nc3n(Cc4ccco4)c(C)c(C)n23)n(C)c1=O
  4 | -2
- O=C(Nc1cccc(Cl)c1)C(C1CCCC1)N1CCN(C(=O)c2ccccc2C(F)(F)F)CC1 (stereo not drawn)
  4 | 16
- Cc1cc(C)c(C(=O)CN2C(=O)C3CC=CCC3C2=O)c(C)c1 (stereo not drawn)
  0 | -7
- CC1CCC2C(=O)N(NC(=O)Cc3c[nH]c4ccccc34)C(=O)C2C1 (stereo not drawn)
  7 | 4
- CC(NC(=O)Nc1ccc(N(C)C)nc1)c1ccc(Cl)s1 (stereo not drawn)
  1 | 0
- Cc1ccc(CNc2nnnn2C)s1
  0 | -1
- CC(NC(=O)CCN(c1nc(C2CC2)nc2ccccc12)C1CC1)c1ccccc1 (stereo not drawn)
  -3 | 10
- O=C(NC1CCOc2ccccc21)C1CCCCN1S(=O)(=O)c1cccs1 (stereo not drawn)
  4 | 2
- CNc1cnc(-c2cccc3ncccc23)cn1
  3 | 1
- COc1nc2cn(C3CCCC3)c(O)c2cc1CNC(=O)COc1ccccc1
  4 | -1
- Cc1cc(NCCS(=O)(=O)N(C)C)nc(-c2cccnc2)n1
  -5 | -11
- O=C(c1c(Cl)cc(Cl)cc1Cl)N1CCC(c2cn(Cc3ccc(C(F)(F)F)cc3)c3ccccc23)CC1
  7 | 2
- CN(C)c1nc(-c2ccccc2O)nc2ccccc12
  11 | 12
- c1cncc(Nc2nccc3[nH]c(-c4ccsc4)cc23)c1
  -5 | -10
- CCOc1ccc(-n2nnc3c(N4CCN(C(=O)CCCCl)CC4)ncnc32)cc1
  -5 | -13
- Cc1c(Cl)cccc1N1CCN(C(=O)Cc2ccccc2)C(C)C1=O (stereo not drawn)
  -4 | 7
- CCNC(=O)CN1CCCCC1CCc1ccccc1 (stereo not drawn)
  2 | -5
- COc1ccc(CCc2nnc(CCC(=O)N3CCSCC3)o2)cc1
  -1&-3 | 0&-5
- CC(OC(=O)C1CSC2(C)CCC(=O)N12)c1ccc2c(c1)OCO2 (stereo not drawn)
  5 | 1
- CCCCC(O)CN(Cc1c(-c2ccccc2)nn(C)c1Oc1cccc(OC)c1)C(C)C (stereo not drawn)
  -5 | 7
- Cc1cccc(C)c1NC(=O)CN(C)C(=O)c1ccccc1Cl
  2 | 0
- CC(=O)Nc1cccc(C(=O)N[C@H]2C[C@H]3CN(C)CCN3C2)c1
  8 | -1
- COC(=O)c1csc(CN(CCC(C)C)C(=O)/C=C/c2ccccc2)n1
  4 | 7
- O=C(CCCCn1ccnc1CO)NNc1ccccc1C(F)(F)F
  9 | 3
- Cc1cccc(SC2CCN(C(=O)c3cn(-c4ccccc4)nn3)CC2)c1
  13 | 9
- Cc1ccc(N2CCN(c3cc(Oc4ccc(F)cc4F)ncn3)CC2)cc1
  -1 | 5
- CC(=NNC(=O)c1ccc(O)cc1)c1ccccc1
  -3 | -6
- CSCCCN(C)Cc1cccc2ncccc12
  3 | 1
- CCCCn1c(C(=O)Nc2cc(Cl)ccc2OC)cc2c(=O)n(C)c(=O)n(C)c21
  -1 | -1
- O=C(CN1CCCC1c1ccccc1)NCc1ccccc1 (stereo not drawn)
  3 | -2
- CCN(CC)c1c(C)nc2ccc(C(=O)N(C)Cc3ccco3)cn12
  -9 | -14
- CCOC(=O)c1cnc(C2CC2)nc1NC(C)c1cccc(OC)c1 (stereo not drawn)
  3 | 4
- Cc1cccc(Nc2ccnc(Nc3cccc(C(=O)NCCc4cnc[nH]4)c3)n2)c1
  10 | 9
- CC(C(=O)N(C)C)N(C)Cc1ccc(-c2ccn[nH]2)o1 (stereo not drawn)
  2 | 3
- Cc1ccc(NC(=O)Cc2nc(-c3ccc(Br)s3)cs2)cc1
  1 | -1
- CC(C)Cn1c(=O)n(CCCn2cccn2)c2cc(C(=O)O)cnc21
  21 | 2
- Cc1nc(C(F)(F)F)nc(-c2ccnc3[nH]ccc23)c1C
  -2 | -7
- CC1=NC=NC1=Cc1c(O)n(-c2ccc3ccccc3c2)c(=S)n1C
  7 | 2
- Cc1ccc(NS(=O)(=O)c2ccc(F)c(S(C)(=O)=O)c2)nc1
  7 | 5
- COc1cccc(CN(CC(O)COC(C)C)C2CC2)c1OC (stereo not drawn)
  21 | 18
- O=C(CCN1C(=O)c2cccc([N+](=O)[O-])c2C1=O)Nc1ccccc1F
  -8 | -10
- OCC[P+](CCO)(c1ccccc1)c1ccccc1
  -2 | 22
- C/C=C/C(=O)N1CCN(c2nccc(-c3cccc(C(F)(F)F)c3)n2)CC1
  3 | 2
- Cc1nc(C2CCCCN2C(C)c2nc(-c3ccco3)no2)no1 (stereo not drawn)
  8 | 6

(more compounds)
Results follow in this order: NPYLR7 agonist | NPYLR7 agonist max-min
- Oc1oc(-c2ccc(Br)cc2)nc1C=Nc1ncccn1
  -19 | -26
- Cc1ccc(OCCc2nnc(NC(=O)C3C=CCN3)s2)cc1 (stereo not drawn)
  2 | -2
- COCc1ccccc1C(=O)NCc1ccccc1Oc1ccccc1
  -4 | -6
- Cc1ccccc1OCC(O)CN(Cc1ccccc1)CC1CC(c2ccccc2)=NO1 (stereo not drawn)
  -2 | 5
- CCC(C)N(CC(=O)N(CCc1ccc(OC)c(OC)c1)Cc1cccs1)S(=O)(=O)c1ccc(OC)cc1 (stereo not drawn)
  -3 | -10
- O=C1CCCC2Nc3ncnc(Cl)c3OC12 (stereo not drawn)
  77* | 72*
- Cc1c(C(=O)NCc2ccc3c(c2)OCCO3)sc(=O)n1Cc1ccc(Cl)c(Cl)c1
  10 | 5
- CCc1nc2c(OCc3ccccc3C)cccn2c1N(C)C(=O)COc1ccccc1
  -23 | -25
- Cc1nn(-c2ccccc2)c(Cl)c1/C=C/C(=O)N1CCN(CC(=O)NC2CC2)CC1
  -3 | -6
- Cc1cc(C(=O)Nc2cc(=O)n(-c3ccccc3)[nH]2)ccc1[N+](=O)[O-]
  -2 | -4
- COc1ccc(N(C)S(=O)(=O)c2ccc(OC)c(N3CCN(S(=O)(=O)c4ccc(Cl)cc4)CC3)c2)cc1
  21 | 12
- CCOC(=O)CSc1nnc(NC(=O)CCCN2C(=O)c3cccc4cccc(c34)C2=O)s1
  12 | 11
- S=c1sc2ccc(Cl)cc2n1CN1CCN(c2ccccn2)CC1
  -6 | -7
- O=C(CSc1ncnc2sc3c(c12)CCC3)NC12CC3CC(CC(C3)C1)C2
  -4 | -4
- CC(C)CN1CCC(CNC(=O)c2ccc(-c3ccc4c(c3)OCCO4)nc2)C1 (stereo not drawn)
  13 | 4
- CCCc1nnc(-c2cc3ccccc3n2CC(=O)Nc2ccc(OC)cc2)o1
  2 | 1
- C=CCN(Cc1csc(COc2c(OC)cccc2OC)n1)C(=O)COC
  19 | 25
- COc1ccc(CN(Cc2ccco2)Cc2ccc(C(C)(C)O)o2)cc1OC
  3 | 6
- Cc1nc(C)n(CC(O)COc2ccc3c(c2)CCC3)n1 (stereo not drawn)
  -6 | -12
- COc1ccc(OC)c2[nH]c(=O)c(CCNC(=O)CC(C)C)cc12
  0 | 0
- C=CCn1c(C(C)OC(C)C)n[nH]c1=O (stereo not drawn)
  5 | 5
- Cc1ccc(-n2cc(CN3CCC(Cc4nncn4C)CC3)cn2)cc1C
  10 | 4
- CC(C)(Oc1ccc(CCNC(=O)c2ccc(Cl)cc2)cc1)C(=O)O
  3&-2 | -2&-6
- CS(=O)(=O)N1CCCN(c2nccc(CCC(F)(F)F)n2)CC1
  -5 | -4
- CC(C)CNc1nccn2c(-c3ccc(OC(F)(F)F)cc3)cnc12
  -2 | -7
- CC[n+]1ccn(-c2nc3ccccc3nc2NS(=O)(=O)c2cccc([N+](=O)[O-])c2)c1
  6 | 4
- CCOc1ccccc1C(=O)N1CCC(c2nc(-c3ccc(OC)cc3)no2)CC1
  0 | -6
- CCC(CC)C(=O)N1C[C@H](C(=O)NC)[C@H]2c3ccccc3N(CCOC)C(=O)[C@]21C
  6 | 14
- Cc1ccc(C)n1-c1nc(CC(=O)OC(C)C(N)=O)cs1 (stereo not drawn)
  0 | 2
- C=C(C)COc1ccccc1C(=O)N1C[C@H]2CC[C@H]1C2
  1 | 2
- Cc1ccc(C)c(OCC(=O)N(C)C(C)c2nccs2)c1C (stereo not drawn)
  9 | 1
- CC(C)c1cc(C2CCN(C(=O)C3CCOC3)CC2)[nH]n1 (stereo not drawn)
  -2 | 3
- O=c1[nH]nc2n1CCCCC2
  2 | 10
- CS(=O)(=O)NC1CCCN(C(=O)c2cc3cc(F)ccc3s2)C1 (stereo not drawn)
  -1 | -2
- COc1ccc(S(=O)(=O)N2CCC(Cc3ccccc3)CC2)cc1N1CCN(S(=O)(=O)c2ccc(Cl)cc2)CC1
  20 | -1
- NS(=O)(=O)c1cccc(Cl)c1
  -5 | -12
- C[C@H](NC(=O)[C@@H](C)N1Cc2ccc(-c3ccc(C#N)cc3)nc2C1=O)c1ccccc1
  -15 | -15
- O=C(NC1CC1)C1CCN(C2CCN(Cc3cccn3-c3ccccn3)CC2)CC1
  -5 | -5
- CCCCC(CC)C(=O)N1CCN(C(=O)CCCSc2nnc(-c3ccc(C)cc3)n2-c2ccc(C)cc2)CC1C (stereo not drawn)
  2 | 10
- Cc1nccn1-c1ccc(C(C)NC(=O)c2ccoc2)cc1 (stereo not drawn)
  2 | -2
- Cc1ccc(NC(=O)CCC(=O)N2CCn3cccc3C2c2cccc(Cl)c2)cc1C (stereo not drawn)
  24 | 14
- CCCCN(CCCC)CCNC(=O)CCC1NC(=O)c2ccccc2N(CCC)C1=O (stereo not drawn)
  0 | 8
- Cc1cc(Cl)cc2sc(N(Cc3ccccn3)C(=O)C3CC3)nc12
  3 | 3
- CCC(c1nc2ccc(C)cc2[nH]1)n1cnc2sc3c(c2c1=O)CCNC3 (stereo not drawn)
  3&-11 | 1&-13
- O=C(c1ccc(F)c(F)c1)N1CCN(c2c(-c3ccccc3)cnc3ncnn23)CC1
  14 | 6
- COc1ccc(Cl)cc1S(=O)(=O)N1CCC(c2cn(Cc3ccc(C(F)(F)F)cc3)c3ccccc23)CC1
  23 | 10
- CC1CC(C)CN(C(=O)COc2ccc(CC(=O)NCCO)cc2)C1 (stereo not drawn)
  -1 | 7
- CC(Sc1ncc(-c2ccccc2)n1CC1CCCO1)C(=O)NC(N)=O (stereo not drawn)
  2 | 2
- COc1cc(C)c(S(=O)(=O)NCCOc2ccc(-c3ccccc3)nn2)cc1C
  -13 | -21

5 records picked at random from those above:
Results follow in this order: NPYLR7 agonist | NPYLR7 agonist max-min
- COc1ccc(Cl)cc1S(=O)(=O)N1CCC(c2cn(Cc3ccc(C(F)(F)F)cc3)c3ccccc23)CC1
  23 | 10
- O=C(c1ccc(F)c(F)c1)N1CCN(c2c(-c3ccccc3)cnc3ncnn23)CC1
  14 | 6
- CC(Sc1ncc(-c2ccccc2)n1CC1CCCO1)C(=O)NC(N)=O (stereo not drawn)
  2 | 2
- Cc1ccc(C)c(OCC(=O)N(C)C(C)c2nccs2)c1C (stereo not drawn)
  9 | 1
- CCC(c1nc2ccc(C)cc2[nH]1)n1cnc2sc3c(c2c1=O)CCNC3 (stereo not drawn)
  3&-11 | 1&-13

At a glance, some entries already given.
Results follow in this order: NPYLR7 agonist | NPYLR7 agonist max-min
- Cc1ccc(C)c(OCC(=O)N(C)C(C)c2nccs2)c1C (stereo not drawn)
  9 | 1
- CC(C)c1cc(C2CCN(C(=O)C3CCOC3)CC2)[nH]n1 (stereo not drawn)
  -2 | 3

Arranged by number of heavy atoms (low to high): some entries from above
Results follow in this order: NPYLR7 agonist | NPYLR7 agonist max-min
- Cc1ccc(CNc2nnnn2C)s1
  0 | -1
- Cc1cc(C)c(C(=O)CN2C(=O)C3CC=CCC3C2=O)c(C)c1 (stereo not drawn)
  0 | -7
- C=CCN(Cc1csc(COc2c(OC)cccc2OC)n1)C(=O)COC
  19 | 25
- CCCc1nnc(-c2cc3ccccc3n2CC(=O)Nc2ccc(OC)cc2)o1
  2 | 1

Compound activity deposited in PubChem by Fisher Drug Discovery Resource Center.
